H5N1 antiviral: MDCK cell protection from H5N1 avian flu; cytopathic effect, luminescence, 72 h; active compounds read high; no value below 0 was filed and about half of the inactive calls have no number; reference of the scale not given here; inhibition, % at 50 µM; 0.07% of 96,000 active; AID 740; in the data active = inhibition above about 25%
Starred values were filed as active, the others as inactive; i = inactive. The list is partial; rates above refer to the full screens.

SMILES | H5N1 antiviral
Cn1c2ccccc2c2c(C(=O)N3CCC4(CC3)OCCO4)cn(C3CCCC3)c(=O)c21 | i
CN(C)c1ccc(C(=O)c2ccc(N(C)C)c(N)c2)cc1N | i
Cc1cc(=O)n2nc(N3CCCC(C(=O)NCc4ccc5c(c4)OCO5)C3)sc2n1 (configuration not stated) | 0.7
COC(=O)c1ccc(Cl)c(NS(=O)(=O)c2ccc3c(c2)OCCO3)c1 | i
c1ccc(SCCOCCn2cncn2)cc1 | 0.4
CCOC(=O)N1CCN(c2c(N3CCN(c4ccccn4)CC3)c(=O)c2=O)CC1 | 0.2
Brc1cc2c(cc1COc1ccc(-c3nn[nH]n3)cc1)OCO2 | i
CCn1c(=O)cc(SCC(=O)N2CCN(Cc3ccc4c(c3)OCO4)CC2)c2ccccc21 | i
CCCCOc1ccc(C(=O)O)cc1 | 0.9
CCCCc1cc(=O)oc2cc(OCc3cc(OC)c(OC)c(OC)c3)c(Cl)cc12 | i
COc1ccc(F)cc1S(=O)(=O)Nc1ccc2c(c1)OCCO2 | i
COC(=O)c1[nH]c2ccc(Cl)cc2c1NC(=O)CCN1CCN(C2CCCCC2)CC1 | i
CN(C)S(=O)(=O)c1ccc(C(=O)Nc2ccc(CCC(=O)N3CCCC3)cc2)cc1 | 2.1
COc1ccccc1N=c1oc2cc(O)ccc2cc1C(=O)NCC1CCCO1 (configuration not stated) | 0.1
Cc1ccc(-n2c(=O)[nH]cc(C(=O)N3CCc4ccccc43)c2=O)cc1C | 2.0
C/C(N)=C(/C#N)C(=O)COC(=O)CC12CC3CC(CC(C3)C1)C2 | 2.6
O=C(CCCNS(=O)(=O)c1cccc2nsnc12)NCc1ccc(F)cc1 | i
COC(=O)[C@@H]1C2CCC(C(=O)Nc3ccccc3)(CC2)[C@@H]1C(=O)OC | i
COc1cccc(-n2c(SCC(=O)NCc3ccco3)nnc2-c2c[nH]c3ccccc23)c1 | 2.4
O=C(O)CSc1ccc2ccccc2n1 | i
O=C(COC(=O)C1COc2ccccc2O1)Nc1ccc2c(c1)CCC2 (configuration not stated) | i
CC1(C)NC(=O)N(CCCCSc2ccc(Cl)cc2)C1=O | i
CCC(C)Nc1nc(OC)nc(N(C)C#N)n1 (configuration not stated) | i
Cc1cccc(C)c1OCC(=O)OCC(=O)c1ccc2c(c1)NC(=O)CO2 | 1.2
CC(CN1CCCCC1)OC(=O)C(C)(c1ccccc1)c1ccccc1 (configuration not stated) | i

A draw from above in order of molecular weight, ascending.
SMILES | H5N1 antiviral
CCCCOc1ccc(C(=O)O)cc1 | 0.9
COC(=O)[C@@H]1C2CCC(C(=O)Nc3ccccc3)(CC2)[C@@H]1C(=O)OC | i
O=C(COC(=O)C1COc2ccccc2O1)Nc1ccc2c(c1)CCC2 (configuration not stated) | i
Cc1cccc(C)c1OCC(=O)OCC(=O)c1ccc2c(c1)NC(=O)CO2 | 1.2
COC(=O)c1ccc(Cl)c(NS(=O)(=O)c2ccc3c(c2)OCCO3)c1 | i
CCCCc1cc(=O)oc2cc(OCc3cc(OC)c(OC)c(OC)c3)c(Cl)cc12 | i

The listing picks up, repeating the three entries before the break.
SMILES | H5N1 antiviral
CCC(C)Nc1nc(OC)nc(N(C)C#N)n1 (configuration not stated) | i
Cc1cccc(C)c1OCC(=O)OCC(=O)c1ccc2c(c1)NC(=O)CO2 | 1.2
CC(CN1CCCCC1)OC(=O)C(C)(c1ccccc1)c1ccccc1 (configuration not stated) | i
CCCSc1nc2c(c(=O)n1-c1ccc(OCC)cc1)SCC2 | 1.1
Cc1nc(SCC(=O)NC2CCCC2)[nH]c(=O)c1Cc1ccccc1 | i
COc1ccc(OC)c(NS(=O)(=O)c2ccc(N3CCCC3=O)cc2)c1 | 0.4
COc1ccc(CCNC(=O)CCCN2C(=O)c3ccccc3C2=O)cc1OC | 0.4
O=C(CSc1ncn[nH]1)c1ccc2c(c1)OCO2 | 1.1
CCCCn1c(CN2CCN(CCO)CC2)nc2ccccc21 | i
Cc1ccc(CN2CCN(c3ncccn3)CC2)o1 | i
CCOC(=O)C(C(=O)OCC)c1cc(Br)c2noc3c2c1C(=O)c1ccccc1-3 | i
CCOc1ccccc1CN1CCC(O)CC1 | i
O=C1N=C(N2CCC(Cc3ccccc3)CC2)S/C1=C/c1cn[nH]c1-c1ccccc1 | 0.0
CCN(C(=O)c1c(OC)cccc1OC)c1nnc(-c2cccnc2)s1 | i
Cc1ccc(/C=C/C(=O)NC(=S)Nc2ccccc2C(=O)NC2CCCCC2)cc1 | 0.5
CCOC(=O)Cc1csc(NS(=O)(=O)c2ccccc2)n1 | 0.1
COc1ccc(/C=N/Nc2ccccc2)cc1Cn1nc(C)c([N+](=O)[O-])c1C | 0.3
O=C(Nn1cnnc1)C1Cc2ccccc2CN1S(=O)(=O)c1ccc(F)cc1 (configuration not stated) | i
COc1cccc(-c2nnc3n2N=C(C(C)(C)C)CS3)c1 | 11.1
COC(=O)c1c(C)n(-c2ccc(C)cc2)c2ccc(O)cc12 | 1.1
CCCCn1c(=N)n(CC(O)COc2ccccc2)c2ccccc21 (configuration not stated) | 0.4
O=C(CCN1CCCCC1)NCC1OCCc2ccccc21 (configuration not stated) | 0.9
COc1ccc(OC)c(-n2c(SC)nnc2-c2c[nH]c3ccccc23)c1 | i
COc1ccc(CCn2nnnc2C(C(C)C)N2CCN(c3ncccn3)CC2)cc1OC (configuration not stated) | 0.3
Cc1ccc(C(=O)OCc2ccc3c(c2)OCO3)cc1S(=O)(=O)N1CCCCC1 | 1.0
Cc1ccnc(NS(=O)(=O)c2ccc(NC(=O)C34CC5CC(C)(CC(C)(C5)C3)C4)cc2)n1 | i
CCOC(=O)N1CCC(N(CCCOC)C(=O)Nc2cccc(OC)c2)CC1 | 0.8
CCOC(=O)N1CCN(C(=O)C2CCN(Cc3nc(-c4ccccc4C)oc3C)CC2)CC1 | i
More entries.
SMILES | H5N1 antiviral
COc1ccc(C(F)(F)F)cc1N/C=C\c1nnnn1-c1ccccc1 | i
O=c1c2c(nc3c(-c4ccccc4)c[nH]n13)CCC2 | 3.0
COc1ccc(C(NC(=O)CC(C)C)NC(=O)CC(C)C)cc1OC | i
Cc1ccc(N(CC(=O)Nc2ccc(F)c(Cl)c2)S(=O)(=O)c2c(C)noc2C)cc1 | i
O=P(O)(CN1CCCCC1)CN1CCCCC1 | 0.8
CCOC(=O)c1cn(CC)c2ccc(S(=O)(=O)N3CC(C)CC(C)C3)cc2c1=O (configuration not stated) | i
CC(=O)ON1C(C)(C)CC(OC(=O)c2ccccc2)CC1(C)C | 5.9
O=C(N/N=C(\c1ccccc1)c1cccnc1)C(O)(c1ccccc1)c1ccccc1 | i
O=c1[nH][nH]c(C(F)(F)F)c1C=Nc1cccc(Cl)c1 | i
CCCCOC(=O)C(C#N)c1nc2ccccc2nc1N1CCOCC1 (configuration not stated) | 0.4
COC(=O)[C@H](C)NC(=O)Nc1ccc(OC(F)(F)F)cc1 | i
CCOc1ccc(S(=O)(=O)N(C)CCO)cc1-c1nc2c(C(C)(C)C)nn(C)c2c(=O)[nH]1 | i
CCOC(=O)CSc1nc2ccccc2c(=O)n1C1CCCC1 | 0.7
CC1(C)NC(=O)N(CCCCOc2ccc3ccccc3c2Cl)C1=O | 2.6
COC(=O)CSC1=C(C#N)C(c2ccc(F)cc2)CC(=O)N1 (configuration not stated) | 0.6
S=C(NCc1ccccn1)Nc1ccc(Cl)c(Cl)c1 | i
Cc1ccc(NC(=O)C2=C(O)c3ccccc3N(C)S2(=O)=O)cc1 | i
CN(CC(=O)NCc1ccc(Cl)cc1)S(=O)(=O)c1cccc2nsnc12 | i
CCCCn1c(=O)n(CC(=O)Nc2c(CC)cccc2CC)c(=O)c2c1nc(CO)n2CCC | i
CCN(CC)C(=O)Nc1cnc2ccccc2c1 | 3.0
COc1ccc(C(=O)C(c2ccccc2)N2CCOCC2)cc1 (configuration not stated) | 1.5
Cc1cc(C)cc(OCCCCCNCCO)c1 | i
O=C(c1ccco1)N1CCN(CC(O)Cn2c3ccccc3c3ccccc32)CC1 (configuration not stated) | i
COc1ccccc1-c1nnc(SCC(=O)c2ccc(C3CCCCC3)cc2)n1Cc1ccco1 | i
COc1ccc(N(C)C(=O)c2cnc(N3CCN(c4ncccn4)CC3)c3ccccc23)cc1 | i
Later entries.
SMILES | H5N1 antiviral
O=C(COc1ccc(Cl)cc1)NC1CN2CCC1CC2 (configuration not stated) | i
O=C(O)CSc1nnc(Cn2cnc3ccccc32)n1CCc1ccccc1 | 2.1
O=S(=O)(c1ccc(Cl)cc1)N1CCCC1c1nc2ccccc2s1 (configuration not stated) | 1.7
Cc1cccc(NC(=O)Cn2nc(C(F)(F)F)cc2C2CC2)c1 | i
CCOP(=S)(OCC)SCOC(=O)NCC(=O)OC | i
O=C(CN1CCN(Cc2ccccc2F)C1=O)NCc1ccco1 | i
O=C(c1ccco1)N1CCCN(C(=O)c2ccco2)CC1 | 0.6
CCOC(=O)c1ccc(NCc2ccc3c(c2)OCO3)cc1 | i
O=C(Nc1ncc(Cc2cccc(Cl)c2)s1)C1CCCO1 (configuration not stated) | i
CCN(CC)S(=O)(=O)c1ccc(Cl)c(C(=O)Nc2nncs2)c1 | 1.6
Nc1cc(=O)nc(SCC(=O)N(C2CCCCC2)C2CCCCC2)n1-c1ccccc1 | 0.1
OC(Cn1cncn1)c1ccc(Cl)cc1 (configuration not stated) | i
Nc1c(C(=O)OCc2ccccc2)c2nc3ccccc3nc2n1Cc1cccs1 | 6.7
O=C(NC(NC(=S)Nc1ccc(Cl)cc1Cl)C(Cl)(Cl)Cl)c1cccc([N+](=O)[O-])c1 (configuration not stated) | 0.3
Cc1ccc2oc(-c3ccc(NC(=O)c4cccnc4)cc3)nc2c1 | i
CCC(c1nnnn1Cc1ccccc1)N(Cc1ccco1)Cc1cc2cc(OC)ccc2[nH]c1=O (configuration not stated) | i
Cc1ccc(CN2CCN(C(=O)CCN3C(=O)c4ccccc4C3=O)CC2)cc1 | i
C=CCNc1ncnc2c1[nH]c1ccc(Cl)cc12 | 4.3
O=C(Nn1c(=O)[nH]c2ccsc2c1=O)c1ccccc1 | 1.3
COCCN1C(=O)C(CC(=O)Nc2ccc(C(=O)O)cc2)SC1=Nc1ccccc1 (configuration not stated) | 0.6
Cc1c(Cl)c([N+](=O)[O-])nn1CC(=O)NC12CC3CC(CC(C3)C1)C2 | 0.4
O=C(C/C=N/OCc1ccc(F)cc1Cl)c1cnc(-c2ccccc2)s1 | i
O=c1c(O)c(-c2cccs2)oc2ccc(Cl)cc12 | 4.0
Cc1ccnn2cc3c(=O)n(C)c(=O)n(C)c3c12 | i
COCCN1C=C(C(=O)OC)C(c2cc(Br)c(OC)c(OC)c2)C(C(=O)OC)=C1 | 2.0
(listing goes on)
SMILES | H5N1 antiviral
O=C(COC(=O)c1ccco1)Nc1cccc(Br)c1 | i
Cc1nc(NC(C)C(=O)O)c2nc(C)oc2n1 (configuration not stated) | 1.0
CCOc1ccc2[nH]c(=O)c(CN(CCO)C(=O)c3ccc(Br)cc3)cc2c1 | 0.3
CCCCSP1(=S)NCCCN1 | 0.1
COc1ccc(S(=O)(=O)Nc2cccc(Cl)c2)cc1OC | 2.2
CC(C(=O)Nc1ccc2nccnc2c1)N1C(=O)C2C3C=CC(C3)C2C1=O (configuration not stated) | 2.3
CCN(CC)S(=O)(=O)c1cccc(-c2nnc(SCc3ncc(-c4ccccc4)o3)n2C)c1 | 3.6
COc1ccccc1NC(=O)CN1C(=O)NC(CC(C)C)C1=O (configuration not stated) | 0.4
Cc1cc(C)n(C(=O)CNC(=O)C2COc3ccccc3O2)n1 (configuration not stated) | i
O=C(CSc1nnc(-c2cccnc2)n1Cc1ccco1)c1ccc(Br)cc1 | 0.9
O=C(CSc1nc(Nc2ccccc2)nc(N2CCOCC2)n1)N1CCc2ccccc21 | 2.1
COc1ccc(/C=C/C(=O)c2c(C)nc3ccccn23)cc1 | 3.8
COc1cc(NC(=O)c2nnn(Cc3ccc(SC)cc3)c2N)cc(OC)c1 | i
O=C1c2ccccc2C(O)(c2ncc[nH]2)N1CCc1ccccc1 (configuration not stated) | 0.7
Cc1ccc(Cc2cnc(NC(=O)C3CCCO3)s2)cc1 (configuration not stated) | i
Cc1cccn2cc(CCNC(=O)c3ccc(Br)o3)nc12 | 1.9
O=C(Cn1nc(-c2ccc(Cl)cc2)c2ccccc2c1=O)Nc1cccnc1 | i
COc1cccc(NC(=O)CSCC(=O)O)c1 | 1.1
Cn1c(NC(=O)c2ccc3c(c2)OCO3)cc(=O)n(C)c1=O | 1.9
CC(Oc1ccccc1)C(=O)Nc1nc2c(s1)C(=O)CC(C)(C)C2 (configuration not stated) | i
CCCCNS(=O)(=O)c1ccc2nc(SCC(=O)Nc3sccc3C#N)[nH]c2c1 | i
COc1ccc(N(C(=O)C(C)C)S(=O)(=O)c2ccc3c(c2)n(C)c(=O)n3C)cc1 | 0.1
O=C(CN(c1ccccc1F)S(=O)(=O)c1ccccc1)NC1CCCCCC1 | i
CCOC(=O)Cn1nnnc1C(C(C)C)N(Cc1cccs1)Cc1cc2cc(C)ccc2[nH]c1=O (configuration not stated) | i
CCOC(=O)Nc1ccc2c(c1)N(C(=O)C(C)N1CCCC1)c1ccccc1CC2 (configuration not stated) | i
CN(C)c1ccc(/C=N/n2ncc3ccccc32)cc1 | i
COC(=O)c1ccc(NC(=O)CSc2n[nH]c(-c3ccncc3)n2)cc1 | i
O=C(COc1ccc(Cl)cc1)NCCSc1ccccc1 | 0.9

Two of the compounds above, tab-delimited:
canonical_smiles	H5N1 antiviral
Cc1ccc(Cc2cnc(NC(=O)C3CCCO3)s2)cc1 (configuration not stated)	i
Cc1cccn2cc(CCNC(=O)c3ccc(Br)o3)nc12	1.9
